Assay outcomes: PubChem, several laboratories
WNV NS2B-NS3 inh: WNV NS2B-NS3 proteinase inhibition; z-score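 (tested at a level between 10 and 100 µM)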; WNV NS2B-NS3 protease, fluorogenic substrate Ex360/Em465; active compounds read low; hit rate 0.18% among 65,000; P06935;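 active means z-score at -3 or under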;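 further: score is relative to mean and spread of the compound wells of a plate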
Target sequence (P06935 1371-1501 limits assumed): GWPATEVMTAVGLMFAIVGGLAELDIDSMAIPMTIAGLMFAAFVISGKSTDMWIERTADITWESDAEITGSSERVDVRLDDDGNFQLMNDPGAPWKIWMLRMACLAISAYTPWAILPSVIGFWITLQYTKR
Target sequence (P06935 1502-1679 limits assumed): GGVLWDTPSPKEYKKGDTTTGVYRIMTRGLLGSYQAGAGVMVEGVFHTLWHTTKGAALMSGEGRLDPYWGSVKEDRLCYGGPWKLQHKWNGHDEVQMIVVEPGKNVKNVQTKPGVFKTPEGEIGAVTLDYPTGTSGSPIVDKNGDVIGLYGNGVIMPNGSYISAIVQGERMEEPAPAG
Hsc70 ATP site: small molecules displacing fluorescent ligand from Hsc70 – biochemical, fluorescence polarization, primary screen (AID 568); one-dose displacement, % at 20 µM; IC50 in µM for titrated hits; Hsc70 fluorescence polarization, probe displacement; higher % means a stronger effect; strong numbers were not always called active; 83,000 tested, under 10 active;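 active means displacement above 50% without optical interference and an IC50 on retest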;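 further: ATPase domain with a fluorescein-tagged ATP probe; 0% = vehicle and 100% = excess ADP; read after one hour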
MT1-MMP promoter: MT1-MMP gene expression reporter suppression – cell-based, luciferase reporter, luminescence (AID 618); MT1-MMP promoter luciferase reporter cells, luminescence; calls from a first round at 10 µM; hits with a dose series show EC50 in µM; hit rate 0.62% among 87,000;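 active means over half of the reporter light lost at 10 µM or EC50 under 50 µM; inactive means the rest and hits that failed the dose series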;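 further: actives suppress MT1-MMP promoter-driven transcription so potencies describe inhibitors; HT1080 fibrosarcoma cells; overnight exposure; toxic or luciferase-blocking compounds were not removed from the actives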
* = called active by the depositor; i = inactive; . = no result given.

SMILES	WNV NS2B-NS3 inh	Hsc70 ATP site	MT1-MMP promoter
Cc1ccc(NC(=O)Cn2cccc2)cc1Cl	-0.78	-4.1%	i
Cc1cc(N2CCN(C(=O)c3ccco3)CC2)n2ncc(-c3ccccc3)c2n1	0.29	-1.1%	i
O=C(CCCOc1ccccc1)Nc1cccnc1	.	-3.4%	i
N#Cc1cccc(NC(=O)Nc2cccs2)c1	0.47	-8.5%	i
COc1cc2c(cc1OC)/C(=C/C#N)NC(C)(C)C2	1.32	0.8%	i
CCc1nnc(NC(=O)CSc2nnc(C)n2CC2CCCO2)s1 (stereo not given)	-0.1	-2.8%	i
Cc1ccccc1N1CCN(Cc2cccc(C(=O)O)c2)CC1	-1.31	9.9%	i
CCN(CC)C(=O)CN(c1cccc(C(F)(F)F)c1)S(C)(=O)=O	.	-0.6%	i
Cc1ccc(Oc2ccc(Cl)cc2NC(=O)c2cnccn2)cc1	.	4.5%	i
O=S(=O)(NCC1CCCO1)c1cc(Cl)ccc1Cl (stereo not given)	.	-0.9%	i

A different layout for some results above.
CCc1nnc(NC(=O)CSc2nnc(C)n2CC2CCCO2)s1 (stereo not given)
  WNV NS2B-NS3 inh = -0.1 | Hsc70 ATP site = -2.8% | MT1-MMP promoter = i

Cc1ccccc1N1CCN(Cc2cccc(C(=O)O)c2)CC1
  WNV NS2B-NS3 inh = -1.31 | Hsc70 ATP site = 9.9% | MT1-MMP promoter = i

CCN(CC)C(=O)CN(c1cccc(C(F)(F)F)c1)S(C)(=O)=O
  WNV NS2B-NS3 inh = . | Hsc70 ATP site = -0.6% | MT1-MMP promoter = i

Cc1ccc(Oc2ccc(Cl)cc2NC(=O)c2cnccn2)cc1
  WNV NS2B-NS3 inh = . | Hsc70 ATP site = 4.5% | MT1-MMP promoter = i

(continued)
SMILES	WNV NS2B-NS3 inh	Hsc70 ATP site	MT1-MMP promoter
FC(F)(F)COc1nc(N2CCOCC2)nc(N(c2ccccc2)c2ccccc2)n1	.	0.4%	i
COc1cc(-c2nnc(SCC(=O)Nc3cc(C)on3)n2C)cc(OC)c1O	-0.88	-1.9%	i
Cn1cnc2cc(NS(=O)(=O)c3ccc(Br)cc3)ccc21	1.75	-3.6%	i
Cc1ccc(SCc2cn3cccnc3n2)cc1	.	-2.4%	i
O=C(CSc1nc(-c2ccccc2)cc(=O)[nH]1)Nc1ccccn1	0.07	-0.3%	i
CCCCN(CC)C(=O)C1CCC(=O)N(c2ccc(OC)cc2)C1c1ccc(OC)c(OC)c1 (stereo not given)	-0.57	-2.9%	i
CCCN(CCC)S(=O)(=O)c1ccc(C(=O)NCc2ccc3c(c2)OCO3)cc1	0.62	-1.3%	i
Cc1ccc(C)c(S(=O)(=O)N2CCC(c3nc4c(nnn4Cc4ccc(F)cc4)c(=O)[nH]3)CC2)c1	-0.26	-0.3%	i
COc1ccc(-c2ccc(=O)[nH]n2)cc1	1.66	-5.7%	i
CCOc1ccccc1C(=O)Nc1ccccc1O	0.13	-0.8%	i
CCN1C(=O)CC(NCc2ccc3c(c2)OCO3)C1=O (stereo not given)	.	-4.2%	i
Cc1cc(C)nc(N2CCC(CNC(=O)CCc3ccccc3)CC2)n1	0.98	4.9%	i
C[N+]1(CCOS(=O)C23CC4CC(CC(C4)C2)C3)CCOCC1 (stereo not given)	-1.16	-4.6%	i
Cc1cccc(N(CC(O)CON=C2c3ccccc3-c3ccccc32)S(C)(=O)=O)c1 (stereo not given)	.	-1.9%	i
COC(=O)CSc1nnc(C2COc3ccccc3O2)n1-c1ccccc1 (stereo not given)	0.64	5.0%	i
COc1ccc(OCc2n[nH]c(=S)o2)cc1	.	-0.2%	i
CCOC(=O)c1c(C)nc2c(C#N)cnn2c1C	-1.13	6.9%	i
COc1cc(C2C(C(C)=O)=C(O)C(=O)N2c2ccc(C)cc2)ccc1O (stereo not given)	.	6.0%	i
CC(C)C(c1nnnn1CC1CCCO1)N1CCN(Cc2ccc3c(c2)OCO3)CC1 (stereo not given)	0.75	-3.9%	i
Cc1cc(C)cc(OCC(=O)N2CCCCCC2)c1	-0.58	-2.3%	i
COc1ccc(C(c2nnnn2C2CCCC2)N2CCC(C)CC2)cc1 (stereo not given)	-0.94	-0.7%	i
COc1ccc(C2C(CC(=O)O)=C(O)C(=O)N2c2ccccc2)cc1 (stereo not given)	-0.1	-1.2%	i
CCOc1ccc(-c2cc(CCCC(=O)NCc3ccco3)no2)cc1	-0.82	-2.4%	i
Cc1cc(C)n2c(SCc3ccc(C#N)cc3)nnc2n1	0.73	11.0%	i
NC(=O)CSc1nnc(C2CC2)n1Cc1ccccc1	0.02	-5.7%	i
O=C(Nc1ncnc2c1CCC2)C12CC3CC(CC(C3)C1)C2	-1.99	1.2%	i
CCCNS(=O)(=O)c1ccc(CCC(=O)N2CCN(c3ccc(OC)cc3)CC2)cc1	.	-1.9%	i
CC(C)(C)C1CCc2onc(C(=O)Nc3cnn(Cc4ccc(F)cc4)c3)c2C1 (stereo not given)	1.63	6.0%	i
CC(=O)Nc1ccc(NS(=O)(=O)c2cn(C)c(=O)n(C)c2=O)cc1	-0.17	0.0%	i
Cc1ccc(S(=O)(=O)N2CCC(O)(c3cccnc3)CC2)cc1	.	0.0%	i
Cc1cccc(-c2nc(C#N)c(N3CCCCCC3)o2)c1	1.08	5.1%	i
CC(Cc1ccccc1)NC(=O)C1(c2ccccc2)CCOCC1 (stereo not given)	.	-4.3%	i
COc1ccccc1OCc1ccc(C(=O)N(C)C)o1	.	0.3%	i
COCCNC(=O)NC(=O)COC(=O)c1cc([N+](=O)[O-])ccc1Sc1nc(C)cs1	.	4.2%	i
O=C(Cn1c(=O)sc2ccccc21)Nc1ccc(S(=O)(=O)N2CCCCC2)cc1	-1.87	5.2%	i
Cc1ccc(CN(CC2CCCO2)C(=O)CN2C(=O)C(C(C)C)Oc3ccccc32)o1 (stereo not given)	0.02	-7.2%	i
COC(=O)c1c(NC(=O)c2ccco2)sc2c1C(C(=O)OC)CC2 (stereo not given)	0.61	3.2%	i
COc1ccc(OCC(=O)O/N=C(\N)Cc2ccc(Cl)cc2)cc1	.	-1.8%	i
Cn1c(=O)oc2cc(S(=O)(=O)NCCN3CCCCCC3)ccc21	-0.29	5.7%	i
Cc1nc2ccccc2nc1OCC(=O)Nc1cc(C(F)(F)F)ccc1N1CCOCC1	0.54	-5.8%	i
CC(=O)Nc1ccc(-c2csc(NC(=O)c3ccc(C)o3)n2)cc1	.	-1.3%	i
Cc1ccc(-c2nnn(CCC(=O)NC3CCCC3)n2)cc1	-0.33	-5.6%	i
CS(=O)(=O)c1ccc(N2CCOCC2)c(S(C)(=O)=O)c1	-0.77	-5.3%	i
CC(C)OCC(O)CSc1ccccn1 (stereo not given)	-1.14	5.3%	i
COc1cccc(-n2nnnc2SCC(=O)N2CCCc3ccccc32)c1	-1.28	-7.7%	i
Cc1cc(C)cc(N2C(=O)CC(N(C(=O)c3ccco3)c3cc(C)cc(C)c3)C2=O)c1 (stereo not given)	.	2.6%	i
O=C(COC(=O)c1ccccc1F)c1ccc(-n2nncc2-c2ccco2)cc1	-0.76	3.2%	i
Cc1cc(NC(=O)Cn2nc3c(cc2=O)CCCC3)ccc1Br	-1.97	-3.7%	i
O=c1oc2c3c(nn2c2ccccc12)CCCC3	-0.54	-6.1%	i
Cc1cc(Oc2ccc(C#N)cc2)nc(NCc2ccccc2)n1	.	3.9%	i

Profiles as entered above. Order of screens: WNV NS2B-NS3 inh, Hsc70 ATP site, MT1-MMP promoter
O=c1oc2c3c(nn2c2ccccc12)CCCC3 in the list: -0.54, -6.1%, i
O=C(COC(=O)c1ccccc1F)c1ccc(-n2nncc2-c2ccco2)cc1 in the list: -0.76, 3.2%, i
Cc1ccc(-c2nnn(CCC(=O)NC3CCCC3)n2)cc1 in the list: -0.33, -5.6%, i
COc1cccc(-n2nnnc2SCC(=O)N2CCCc3ccccc32)c1 in the list: -1.28, -7.7%, i
Cc1cc(Oc2ccc(C#N)cc2)nc(NCc2ccccc2)n1 in the list: ., 3.9%, i

(further entries)
SMILES	WNV NS2B-NS3 inh	Hsc70 ATP site	MT1-MMP promoter
CCc1nc(C)c(-c2ccccc2)c(=O)[nH]1	0.32	5.2%	i
O=S(=O)(Nc1ccc(-c2nc3ccccc3o2)cc1)c1ccccc1	1.57	-5.4%	i
CC(=O)Nc1n[nH]c(S(=O)(=O)Cc2ccc(Cl)cc2Cl)n1	0.32	-4.1%	i
CC(C)CC(C(=O)N1CCc2ccccc2C1)N1C(=O)c2ccccc2C1=O (stereo not given)	.	-5.7%	i
Cc1cccc(N2CCN(c3nnnn3-c3ccccc3)CC2C)c1 (stereo not given)	-0.37	-7.4%	i
O=C(Cn1cnc2sc(-c3ccccc3)cc2c1=O)NCCc1ccccc1	.	-13.1%	i
CCOC(=O)N1CCN(CC(=O)c2ccc3c(c2)CCN3C(C)=O)CC1	-0.33	-0.5%	i
CCOc1ccccc1N1CCN(c2nc3ccccc3nc2C(C#N)C(=O)OC(C)C)CC1 (stereo not given)	-0.03	-10.5%	i
O=C(Cc1coc2ccc3ccccc3c12)NCc1ccccc1	.	-4.2%	i
CCOC(=O)c1ccc(NC(=O)CN2CCN(c3ccccc3)CC2)cc1	0.02	-2.8%	i
N#Cc1c(N)nc2c(c1-c1ccco1)CCCCC2	0.81	0.3%	i
O=C(CO/N=C/c1cccc([N+](=O)[O-])c1)Nc1ccc2ccccc2c1	.	0.6%	i
CCCC(=O)NCCCc1nc2ccccc2n1C	-0.04	-2.0%	i
CCN1CCN(c2cc3c(cc2F)c(=O)c(C(=O)O)cn3C2CC2)CC1	0.06	-3.8%	i
Cc1cc(NC(=O)CSc2nnc(-c3ccco3)o2)no1	0.37	5.1%	i
COc1ccc(C2=CC(c3ccc(F)cc3)n3nnnc3N2)cc1 (stereo not given)	-1	0.7%	i
Cc1ccc2[nH]cc(C(=O)CN3CCOCC3)c2c1	.	3.6%	i
Cc1ccc(C(=O)NCCc2ccncc2)cc1	.	6.4%	i
CCOC(=O)N1CCN(S(=O)(=O)c2cc(Cl)c(OC)cc2Cl)CC1	0.38	3.8%	i
O=C(Nc1nnc(C2CCCCC2)s1)c1ccc(Br)s1	-0.17	-0.7%	i
O=C(N1CCOCC1)n1nnc2ccccc21	-0.63	-0.7%	i
COc1cc(N2C(=O)NC3CC2(C)Oc2ccccc23)cc(OC)c1OC (stereo not given)	-0.38	-1.4%	i
CCN1CCN(C(=O)C2=C(C(=O)O)CCCC2)CC1	0.69	-2.2%	i
CCOc1ccc(C2C(C(=O)c3cccs3)=C(O)C(=O)N2CCCn2ccnc2)cc1 (stereo not given)	.	1.3%	i
Cc1ccc(CNC(=O)CCS(=O)(=O)c2ccc(Br)s2)o1	-1.95	-7.7%	i
Cc1ccc(Nc2nc(C)cc(C)n2)c(Br)c1	-0.18	1.2%	i
O=c1cc(CN2CCN(c3cccc(Cl)c3)CC2)c2cc3c(cc2o1)CCCC3	.	-4.1%	i
O=C(Nc1ccc2oc(-c3ccccc3Cl)nc2c1)c1cncc(Br)c1	0.46	-1.3%	i
CCn1c(NCc2c[nH]c3ccccc23)nc2ccccc21	-1.27	-0.6%	i
CCN(CC)CCn1c(=S)[nH]c2cc(Cl)ccc2c1=O	-0.63	3.3%	i
COc1ccc(CC2NCCC3(O)CCCCC23)cc1 (stereo not given)	-1.2	-0.4%	i
Cc1ccc(NC(=O)COc2ccc(-n3ccnc3)cc2)cc1Cl	.	3.6%	i
CCOc1ccc(Br)cc1S(=O)(=O)Nc1ccccc1N1CCOCC1	-0.96	2.5%	i
COC(=O)c1c(NC(=O)C2CC=CCC2C(=O)O)sc(C(N)=O)c1C (stereo not given)	0.96	-11.9%	i
Cc1nn(C(C)CC(=O)O)c(C)c1C (stereo not given)	.	6.5%	i
CCOC(=O)c1c(C)[nH]c(C)c1C(=O)COC(=O)CCOc1ccccc1OC	-0.57	-3.5%	i
Cn1c(NC(=O)CCc2ccccc2)cc(=O)n(C)c1=O	-1.14	-4.7%	i
CC(C)CCNc1nc2c(c(=O)[nH]c(=O)n2C)n1CC(O)COC(C)C (stereo not given)	0.33	-1.2%	i
Cc1cc(C)n2c(SCC(=O)NCc3ccco3)nnc2n1	1.19	-2.1%	i
CC(NC(=O)COc1ccccc1)C(c1ccccc1)N1CCN(C)CC1 (stereo not given)	-1.39	4.8%	i
COC(=O)c1sc2ccccc2c1C(=O)OC	-0.26	4.3%	i
COc1ccc(S(=O)(=O)N2CCSC2c2ccccc2)cc1 (stereo not given)	-0.02	2.4%	i
Cc1c(NS(=O)(=O)c2ccc3[nH]c(=O)[nH]c3c2)c(=O)n(-c2ccccc2)n1C	-0.36	5.9%	i
Cc1ccc(-c2nnn(CC(=O)N(CC(=O)NC3CCCCC3)c3ccc(F)c(Cl)c3)n2)o1	.	5.2%	i
COc1ccc(Cl)cc1C(=O)NCc1cnn(C)c1C	.	2.4%	i
CN(C)CCC(c1ccc(Br)cc1)c1ccccn1 (stereo not given)	0.35	2.0%	i
COC(=O)CSc1nc(-c2cccs2)ccc1C#N	0.7	-12.4%	i
CCC1Oc2ccccc2N(CC(=O)NCCCN2CCN(Cc3ccccc3)CC2)C1=O (stereo not given)	0.61	5.1%	i
COCCNC(=O)C(OC(=O)CC1Sc2ccccc2NC1=O)c1ccccc1 (stereo not given)	.	1.3%	i
CCOc1cc(C(=O)Nc2cc(=O)n(C)c(=O)n2C)cc(OCC)c1OCC	-0.55	3.8%	i
